# RGS16-Gao = regulators of human RGS16-Galphao interaction. O15492+P09471. bead-based flow cytometry RGS16-Galphao binding, fluorescence; actives lie on both sides. binding response (% of control), % at 10 µM. 220,000 compounds, 0.38% hits. AID 1441;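 active = below 25% or above 175%, edge rows of some plates excepted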;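 note: Galphao activated by GDP with aluminum fluoride before binding; 100% = wells without compound and 0% = beads without RGS; some results beyond the cut were filed as inactive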
# Target sequence (O15492 whole entry, looked up): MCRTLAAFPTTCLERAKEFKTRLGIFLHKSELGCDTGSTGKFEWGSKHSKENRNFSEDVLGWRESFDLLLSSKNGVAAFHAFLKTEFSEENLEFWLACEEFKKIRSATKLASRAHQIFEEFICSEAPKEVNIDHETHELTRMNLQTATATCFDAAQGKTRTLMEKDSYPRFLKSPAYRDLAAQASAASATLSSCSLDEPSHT
# Target sequence (P09471 whole entry, looked up): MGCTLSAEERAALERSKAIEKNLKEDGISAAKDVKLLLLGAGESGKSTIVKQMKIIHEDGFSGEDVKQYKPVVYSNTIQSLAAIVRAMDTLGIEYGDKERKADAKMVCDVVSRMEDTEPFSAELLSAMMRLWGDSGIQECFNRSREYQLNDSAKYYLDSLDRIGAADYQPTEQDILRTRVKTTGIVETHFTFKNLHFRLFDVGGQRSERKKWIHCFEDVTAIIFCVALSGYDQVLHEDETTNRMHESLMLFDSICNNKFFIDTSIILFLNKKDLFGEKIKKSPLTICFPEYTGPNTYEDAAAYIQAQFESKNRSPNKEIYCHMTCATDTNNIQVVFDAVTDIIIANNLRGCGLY
# GALR2 agonist = agonists of human galanin receptor 2 (GALR2) | GALR2-expressing cells, agonist activation read-out | activation, %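 (tested at 5 µM)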 | AID 803 | 140,000 compounds, 0.48% hits;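 active = above mean plus 3 SD of all compounds, about 5% in these data, not always enough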;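 note: 0% = vehicle buffer wells and 100% = reference agonist at full effect; tested in CHO reporter cells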
# Target sequence (O43603 whole entry, looked up): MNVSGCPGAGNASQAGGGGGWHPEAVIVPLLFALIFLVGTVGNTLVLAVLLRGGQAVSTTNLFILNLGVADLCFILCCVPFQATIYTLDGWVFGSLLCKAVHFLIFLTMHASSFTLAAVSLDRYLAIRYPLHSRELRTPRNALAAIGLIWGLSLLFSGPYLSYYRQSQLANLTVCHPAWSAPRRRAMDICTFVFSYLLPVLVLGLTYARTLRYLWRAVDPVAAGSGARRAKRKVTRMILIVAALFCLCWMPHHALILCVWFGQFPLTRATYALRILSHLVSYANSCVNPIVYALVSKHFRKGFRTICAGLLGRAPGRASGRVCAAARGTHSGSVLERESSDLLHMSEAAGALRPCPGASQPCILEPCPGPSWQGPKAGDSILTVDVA
# PKD1 inh = PKD1 (human) kinase inhibition | inhibition, %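 (about 10 µM by stock and volumes)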 | Q15139 | PKD1 kinase fluorescence polarization assay | 200,000 compounds, 0.056% hits;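 active = inhibition of 50% or more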;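 note: controls were vehicle for no effect and a reference inhibitor for full effect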
# HSV replic up = HSV replication enhancement | HSV replication augmentation in cells, fold increase | maximum fold increase | 220,000 compounds, 0.005% hits;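 active = peak rise of 1.5-fold or more in the series; tested in PC3 cells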;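 note: first round at 10 µM; read as green reporter fluorescence; hits show the peak of a series up to 25 µM; 1 = signal of infected wells without compound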
# INS promoter inh = TRM-6 insulin promoter activity inhibition. TRM-6 cells (human fetal islet line), insulin promoter-eGFP reporter, imaging; reporter expression induced with tamoxifen. inhibition, % at 2 µM. 130,000 compounds, 0.9% hits. AID 1273;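 active = inhibition above the mean plus 3 SD, with well images judged a real hit on visual review, cut at about 60% in these data, passing the limit was not always enough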
# INS promoter inh cell count = second read-out of INS promoter inh, no call of its own (marks repeat the call); normalized cell count, %; measured here: cell count, toxicity; reference of the scale not given here;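 cells exposed to compound for 48 h; stained nuclei by imaging scaled within each plate; lower means fewer cells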
# HSV replic up primary fold = also measured in HSV replic up; calls as there; fold increase; compound at 10 µM; measured here: primary screen fold increase 10 uM; tested in PC3 cells;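 GFP signal in the first replicate; 1 = infected wells without compound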
# Numbers without * were called inactive; i = inactive; . = not tested or not shown.
SMILES,RGS16-Gao,GALR2 agonist,PKD1 inh,HSV replic up,HSV replic up primary fold,INS promoter inh,INS promoter inh cell count
CC(=O)Nc1ccc(-n2c(C)nc(=O)c(-c3ccccc3)c2C)cc1,65,-2.5,-10,i,1.1,7,84
Cc1ccc(CNS(=O)(=O)c2ccc(C(F)(F)F)cc2)n1C,106,.,.,i,0.98,.,.
COc1ccc(CCNC(=O)C2CC(=O)N(C3CCCC3)C2)cc1OC (centres undefined),98,-1.9,-11,i,0.85,-9,80
CCn1c(CNC(=O)c2cccs2)n[nH]c1=S,104,-2.7,-8,i,0.79,-100,149
CC1CCC(C(C)C)C(OC(=O)COC(=O)c2cccn2C)C1 (centres undefined),97,-0.2,4,i,1.1,36,107
COc1ccc(NC(=O)COC(=O)Cc2ccccc2[N+](=O)[O-])cc1OC,105,.,-6,i,1,.,.
O=[N+]([O-])c1ccc(Oc2cnc3ccccc3n2)cc1,107,.,-4,.,.,8,124
CCOC(=O)CC(=O)CSc1nc(N)c(C#N)c(-c2ccc(Cl)cc2)c1C#N,96,-2.0,-6,i,0.79,.,.
FC(F)(F)c1cc(-c2ccc(Cl)cc2)nc2ncnn12,103,-0.5,-4,i,0.95,17,157
CCC(C)N(C)C1CCN(C(=S)Nc2ccc(OC)cc2)CC1 (centres undefined),104,.,1,i,0.97,14,95
Cc1nc(C2CC(=O)OC23CCCCC3)cs1 (centres undefined),.,-0.3,-1,i,0.92,.,.
CCn1c(O)c(C=Nc2ccccc2)sc1=O,108,.,-7,i,1,.,.
COc1ccc(CC(=O)c2ccccc2C(=O)O)cc1,101,-1.8,-13,i,0.83,-22,83
COc1ccccc1CSc1ncc(-c2ccc([N+](=O)[O-])cc2)[nH]1,106,-0.8,2,i,0.98,-9,69
Cn1cc(Cl)c(C(=O)N2CCN(c3ncccn3)CC2)n1,104,-1.5,-2,i,1,9,190
CCc1ccc(C2C(C#N)=C(N)N(N3CCOCC3)C3=C2C(=O)CC(C)(C)C3)s1 (centres undefined),97,.,-7,i,0.83,-31,90
O=C(CSc1ccccc1[N+](=O)[O-])NC1CCS(=O)(=O)C1 (centres undefined),187,-0.9,-12,.,.,-31,97
O=S(=O)(c1ccc(F)cc1)n1ccc(-c2cccc(OCc3c(F)cccc3Cl)c2)n1,104,-0.6,-10,i,1.2,8,140
Clc1ccc(-c2cc(-c3ccccn3)on2)c(Cl)c1,105,.,.,i,1.2,.,.
Cc1csc(N/N=C/c2ccc(O)c([N+](=O)[O-])c2)n1,95,-0.5,-9,i,0.8,8,55
O=C(N/N=C/c1c[nH]c2ccccc12)c1sc2ccccc2c1Cl,121,0.2,-15,i,0.86,.,.
CC1=C(C(N)=O)C(c2cccnc2)n2nc(-c3cccc(Cl)c3)nc2N1 (centres undefined),103,-2.6,-2,i,1.1,0,127
COc1ccc(NC(=O)C2CCCN(c3cc(C)nc4ncnn34)C2)cc1 (centres undefined),102,.,-11,i,0.98,.,.
CS/C(=N\S(=O)(=O)c1cccs1)Nc1cccc(Cl)c1C,104,-0.9,4,i,0.97,-79,75
CC(C)CC(OC(=O)c1cccs1)C(=O)NCC1CCCO1 (centres undefined),115,-1.6,19,i,0.92,.,.
CC1CN(CCCCOc2ccc(C(C)C)cc2)CC(C)O1 (centres undefined),103,-2.0,-3,i,0.95,10,138
CC1(C)CC(=O)C2=C(C1)N(C1CCCCC1)C(=O)C2(O)C(F)(F)F (centres undefined),104,0.1,4,i,0.88,36,94
Cc1ccccc1CNC(=O)c1ccccc1N,102,-1.3,-10,i,0.84,-46,139
Cc1ccc(NC(=O)C2CCN(C(=O)NC3CCCCC3)CC2)cc1,104,0.9,-6,i,1.1,50,190
C/C(=C\c1cc(C(=O)O)c(C)o1)CO,96,-1.1,-6,i,0.99,-24,183
Cc1cc(C)cc(NC(=S)Nc2ccc(Cl)c(Cl)c2)c1,102,.,0,i,0.96,-10,116
O=C(/C=C/c1ccco1)NCc1ccco1,94,.,.,i,0.96,.,.
O=C(NCCCN1CCOCC1)c1ccc(CS(=O)(=O)Cc2ccc(Cl)cc2)o1,155,-1.3,-10,i,0.99,1,43
CC1=CCC2C(=O)N(c3cccc(C(=O)N(C)C4CCCCC4)c3)C(=O)C2C1 (centres undefined),98,-0.2,-6,i,0.92,.,.
N#CCC(=O)N/N=C/c1ccc(SCC(=O)Nc2ccccc2)o1,90,.,-3,i,0.88,-71,102
CSc1nc(C)nc(C2CC2)c1C#N,98,.,.,i,1.1,.,.
CCCCNC(=O)Cc1c(O)c2ccccc2[nH]c1=O,102,-0.4,-4,i,0.78,-35,83
O=C(CN1C(=O)/C(=C\c2ccc(F)cc2)Oc2ccccc21)NCc1ccco1,101,-1.2,13,i,1.1,-3,100
Cc1cccc(C2c3[nH]c4ccccc4c3CCN2Cc2ccc(C)s2)n1 (centres undefined),104,.,-2,i,1.1,.,.
CN(CC(=O)Nc1sc2c(c1C#N)CCCCC2)Cc1nc2ccccc2c(=O)[nH]1,102,.,0,i,0.91,.,.
Cc1ccccc1-n1c(SCC(=O)c2c(N)n(C)c(=O)n(C)c2=O)nc2sc3c(c2c1=O)CCCC3,22*,-0.5,-10,i,0.96,-12,45
Cc1cccc(OCCc2c(C)[nH]c(=S)[nH]c2=O)c1,99,.,0,i,0.92,-15,116
Cc1ccc(OCC(=O)N2CCN(C(=O)Cc3ccccc3)CC2)cc1,104,-0.4,-5,i,0.8,.,.
Cc1ncc(C[n+]2csc(CCOC(=O)CC3C4CC5CC(C4)CC3C5)c2C)c(N)n1 (centres undefined),104,-0.5,-3,i,1.2,-25,72
CC1CCN(S(=O)(=O)c2ccc(S(=O)(=O)NCc3cccnc3)cc2)CC1,106,.,-4,i,0.95,.,.
COc1cc(NC(=O)COC(=O)c2ccccc2F)cc(OC)c1,102,-1.4,1,i,1,.,.
CCN(CC)CCN(C(=O)c1ccc(C(C)=O)cc1)c1nc2ccc(Cl)cc2s1,104,.,0,i,0.84,.,.
COc1c(Cl)ccc(Cl)c1C(=O)OCC(=O)O,99,-2.7,-6,i,0.96,13,134
O=C(O)c1cccc(N/N=C/c2cccs2)c1,72,-1.1,2,i,1,-8,114
CSc1nc2ccc(NC(=O)CSc3nnc(N)s3)cc2s1,110,-0.5,5,i,1,-13,95
# (more compounds)
SMILES,RGS16-Gao,GALR2 agonist,PKD1 inh,HSV replic up,HSV replic up primary fold,INS promoter inh,INS promoter inh cell count
Oc1c(C=Nc2ccccc2Cl)[nH]c2ccccc12,104,.,.,i,1.1,.,.
CCCCC(CC)C(=O)NCc1ccccc1OC (centres undefined),101,-0.7,-8,i,0.86,-103,139
CCCc1cc(=O)[nH]c(SCC(=O)Nc2nc(-c3ccccc3)cs2)n1,103,.,0,i,0.73,8,79
COP(=O)(OC)c1nc(-c2cccc3ccccc23)oc1NCc1ccccc1,106,1.8,-3,i,0.91,10,132
Cc1ccc(C2=[N+]([O-])C3(CCCCC/C3=N\NC(N)=O)N(O)C2(C)C)o1 (centres undefined),99,-1.2,1,.,.,17,83
CC(=O)N1N=C(C)CC1c1ccc(O)cc1 (centres undefined),100,0.4,-4,i,1,0,104
CCOC(=O)c1oc2ccc(Br)cc2c1NC(=O)CN1CCN(C)CC1,92,-0.2,0,i,0.77,9,93
O=C(CCn1c(=O)sc2ccccc21)NCc1ccc2c(c1)OCO2,107,-4.3,-16,i,0.81,33,199
Cc1ccc(SCC(=O)Nc2ccccc2C(=O)O)cc1,76,-0.9,-5,i,0.95,11,79
CCOc1ccccc1C(=O)Nc1ccccc1-c1ccccc1,53,0.9,-6,i,0.91,3,99
COc1cc(/C=N/NC(N)=O)cc(Br)c1OCc1ccccc1C,100,-3.0,9,i,1.1,0,76
Cc1ccc(C2(C)NC(=O)N(Cc3c(C)noc3C)C2=O)cc1 (centres undefined),93,0.0,-3,i,1,.,.
O=C1N=C(N2CCOCC2)SC1=C1CCCCC1,204,-0.6,-14,i,0.96,-5,90
CN1CCN(Cc2cn(C)nc2-c2ccccc2F)CC1c1ccccc1 (centres undefined),101,.,-12,i,1.1,.,.
Cn1nc(CC(=O)Nc2ccc(N3CCN(C(=O)OC(C)(C)C)CC3)cc2)c2ccccc2c1=O,95,4.3,4,.,.,-5,112
O=C(Cc1cccc2ccccc12)NN1C(=O)CSC1=S,105,.,7,i,1,.,.
CN(C)S(=O)(=O)c1cccc(NC(=O)COC(=O)c2cc(-c3cccc(Br)c3)nc3ccccc23)c1,95,-1.0,-5,i,0.98,.,.
O=C(CSc1nc2c(cnn2-c2ccc(F)cc2)c(=O)[nH]1)N1CCOCC1,101,-0.8,-1,i,1,0,113
CSc1nc(C)cc(Oc2ccc(=O)[nH]n2)n1,100,.,-4,i,0.94,.,.
O=C(NCc1nc(-c2ccccc2)cs1)c1ccccc1,97,.,-4,i,0.91,.,.
COc1ccc(NCc2nnc(SCC(=O)NNC(=O)c3ccc(C)cc3)n2C)cc1,107,.,2,i,0.86,.,.
O=C(NC1CCCCC1)c1nc2c(nnn2Cc2ccccc2Cl)c(=O)[nH]1,107,-0.5,-12,i,1,14,57
CCOc1ccc(S(=O)(=O)NCCC(=O)OCC(=O)Nc2cc(C)on2)cc1,104,.,.,i,1,.,.
CCCNS(=O)(=O)c1ccc(OCC(=O)N2CCOCC2)cc1,109,-1.2,-9,i,1,-72,88
O=C1C[C@@H](c2ccc(O)cc2)Oc2cc(O)cc(O)c21,99,-0.5,-12,i,0.84,0,115
O=C1C(=O)N(c2cccc(Cl)c2)C(c2ccccc2[N+](=O)[O-])/C1=C(\O)c1ccccc1 (centres undefined),93,-2.9,11,i,0.92,.,.
Cc1nn(Cc2c(Cl)cccc2Cl)c(C)c1NC(=O)c1cc(C(C)C)on1,101,6.9,-12,i,0.96,.,.
CCOC(=O)c1cc2[nH]c3ccccc3c2[n+](-c2ccc([N+](=O)[O-])cc2)c1C,100,-0.8,-4,i,1,-56,110
COC(=O)c1cccc(NC(=O)c2cccc(OC)c2)c1,121,-0.7,2,i,1.1,0,114
Cc1ccsc1/C=N\NC(=O)c1ccc2c(c1)OCO2,105,-1.4,-6,.,.,41,55
O=C(Nc1ccccc1F)NC1CCN(Cc2nnnn2Cc2ccc(F)cc2)CC1,101,-0.2,1,i,1.5,.,.
COc1ccc(OC)c(S(=O)(=O)N(C)CC(=O)Nc2ccc3c(c2)OCCO3)c1,99,-1.9,-3,i,0.95,10,89
O=C(NCCc1ccccc1)C1CCN(C(=O)c2sccc2-n2cccc2)CC1,100,-1.2,-7,i,0.9,.,.
Nc1nc(C23CC4CCC(CC(C4)C2)C3)cs1,98,-0.4,-14,i,0.95,28,109
COc1ccc(C)cc1NC(=O)NCc1ccc(F)cc1,102,.,7,i,0.98,-7,120
CN(C)C(=O)Cn1cnc2c(cnn2-c2ccccc2Cl)c1=O,95,-2.9,-14,i,0.95,.,.
O=C(CSc1nccn1-c1cccc(Cl)c1)Nc1ccc2c(c1)OCCO2,103,-3.1,-5,i,1.1,.,.
CC(=O)NCCOc1nc(N(C)C)nc(N2CCCCC2)n1,104,.,-10,i,1.1,.,.
CCN(CC)S(=O)(=O)c1ccc(S(=O)(=O)N(CC(=O)Nc2ccccc2)CC2CCCO2)cc1 (centres undefined),.,-2.6,-7,i,0.99,60,67
O=C1CC(c2ccccc2)CC(O)=C1C=NCCN1CCN(C(=O)Nc2ccccc2)CC1 (centres undefined),106,0.6,-9,i,0.94,14,153

# Screening data as filed in PubChem BioAssay.
